gsp antagonist: antagonists of gsp mutant (McCune-Albright syndrome) | Potency, µM (highest dose often 76.9 µM), without a hit: top-dose activity change, negative = inhibition, most hits filed as inhibitors | 0.4% of 340,000 active | gsp-mutant cells, cAMP HTRF, 30 min; control for the full effect not named in the record; active = falling curve of any shape with a large fitted effect; inconclusive = falling curve, mostly with a smaller effect; inactive = flat or rising curve; cell line not stated here;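 note: intracellular cAMP measured with PDE inhibitor Ro 20-1724 present during compound exposure; potency is the fitted concentration of half-maximal effect; % is set by controls: 0 for no effect and ±100 for the full control effect; nearly all actives have a fitted effect of over 65% in size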
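G418-selected cells were plated in DMEM/10% FBS for 16-24 h at 37C, then treated with compounds plus the PDE inhibitor […] (300 uM solution added) for 30 min at 37C. Intracellular cAMP was measured by HTRF after 30 min lysis at room temperature.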
TRPV1 potentiator: enhances activation of the human vanilloid receptor TRPV1. potentiation, % at 8.33 µM. TRPV1-expressing cells, Fluo-8 calcium influx, capsaicin EC20 potentiation; host cell line not named in the record; control for the full effect not named in the record. 0.02% of 320,000 active; active means potentiation above 80%; inconclusive means 30% to 80%; inactive means below 30%; note: 0% is about no effect
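Fluo-8 calcium influx in TRPV1-expressing cells, kinetic read (ex 480/em 520 nm). Compound added and read 3 min for agonist activity, followed by capsaicin at EC20 final and 2 min further read for enhancement.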
Menin-MLL FL inh: inhibitors of human menin-MLL interaction, wild-type MLL peptide | Fluorescence polarization, fluorescein-MLL peptide displacement from menin | FP activity change, % at 61.4 µM | 290,000 tested, under 10 active; inconclusive = falling polarisation curve, or a change in total fluorescence; inactive = total fluorescence flat and polarisation flat or rising; no compound was filed as active; the % refers to the polarisation; negative = inhibition;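 note: % of control where 0% means no effect; inhibitors lower the polarisation; unlabelled MLL peptide was the positive control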
Sfp PPTase inh: blocks B. subtilis Sfp PPTase activity; Q9F4F7; Biochemical Sfp PPTase activity, qHTS; Potency, µM, for the others: max response, negative = inhibition, hits mostly inhibitors; 3.5% of 310,000 active; active = well fitted inhibition curve with a large enough effect; inconclusive = small, poorly fitted or top-dose-only effect, or another doubt; inactive = no such curve, though single readings can be large or run the other way;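 note: the enzyme is Sfp with the accession as filed and its product quenches rhodamine fluorescence; potency is the fitted concentration of half-maximal effect; 0% = enzyme reaction without inhibitor and -100% = no enzyme wells; top concentration of the series not given in the record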
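Buffer: 50 mM Hepes-Na pH 7.6, 10 mM MgCl2, 0.01% Nonidet P-40, 0.01% BSA. Enzyme 15 nM, pre-exposed to compound 15 min; substrates then added and fluorescence change tracked over 30 min.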
TRPML1 blocker: blocks the human TRPML1 channel; Q9GZU1; TRPML1-inducible cells, Ca2+ dye fluorescence, FDSS; stronger effect = lower value; inhibition of EC80 agonist-evoked calcium signal; activity change, negative = inhibition, % (test concentration not listed); 0.02% of 390,000 active; AID 624415; in the data active means activity change below about -50%; inconclusive means about -30% to -50%; inactive means above about -30%;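 note: stimulus is agonist 54-4 at its EC80 concentration; % is set by controls: 0 for no effect and ±100 for the full control effect; compound concentration not given in the record; the text of the record puts the active cut at -80%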
Target sequence (Q9GZU1 whole entry, looked up): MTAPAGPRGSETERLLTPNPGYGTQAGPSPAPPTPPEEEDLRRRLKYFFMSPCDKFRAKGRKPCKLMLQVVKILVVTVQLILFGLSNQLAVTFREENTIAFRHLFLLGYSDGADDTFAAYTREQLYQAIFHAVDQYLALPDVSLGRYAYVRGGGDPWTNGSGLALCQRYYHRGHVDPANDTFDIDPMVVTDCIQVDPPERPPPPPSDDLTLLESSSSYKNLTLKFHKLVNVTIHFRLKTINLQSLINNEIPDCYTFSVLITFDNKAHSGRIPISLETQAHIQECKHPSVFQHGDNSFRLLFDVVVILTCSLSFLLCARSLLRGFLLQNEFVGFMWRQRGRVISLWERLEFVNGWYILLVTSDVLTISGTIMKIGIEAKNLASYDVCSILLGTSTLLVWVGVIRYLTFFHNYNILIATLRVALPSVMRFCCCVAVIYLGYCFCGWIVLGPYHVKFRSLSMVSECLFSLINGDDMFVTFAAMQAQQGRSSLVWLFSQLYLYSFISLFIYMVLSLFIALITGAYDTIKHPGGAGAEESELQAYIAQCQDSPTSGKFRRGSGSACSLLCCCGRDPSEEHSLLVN
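Calcium fluorescence in TRPML1-DL cells induced overnight with Tet: a 110 s read after compound pin addition, then a 110 s antagonist read after challenge with 54-4 at 4 uM final (EC80).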
gsp ag: agonists of gsp mutant (McCune-Albright syndrome); gsp mutant cells, cAMP HTRF, 30 min; control for the full effect not named in the record; Potency, µM (titrated, usually from 76.9 µM), for the others: top-dose activation (cAMP increase), hits mostly activators; 0.13% of 340,000 active; active = well fitted activation curve with a large enough effect; inconclusive = small, poorly fitted or top-dose-only effect, or another doubt; inactive = no such curve, though single readings can be large or run the other way; cell line not stated here;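 note: phosphodiesterase inhibitor Ro 20-1724 added with compounds to block cAMP breakdown; potency is the fitted concentration of half-maximal effect; nearly all actives have a fitted effect of over 60% in size; about a fifth of the inactives were tested at one dose only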
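Cells in DMEM/10% FBS with G418 were pretreated with compounds in DMSO plus […] (300 uM stock) for 30 min at 37C. cAMP was measured by HTRF (cAMP-d2 plus anti-cAMP antibody-K) after 30 min at room temperature.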
ClpP mod: qHTS Assay for Activators of ClpP | ATP-dependent Clp protease proteolytic subunit (Bacillus subtilis (strain 168)), P80244 | purified B. subtilis ClpP, FRET peptide cleavage, 20 min | Potency, µM (series often up to 57.5 µM), for inactives: top-dose activity change, negative = active | 1.9% of 340,000 active | AID 651965, 2013; active = well fitted falling curve with a large enough effect; inconclusive = small, poorly fitted or top-dose-only effect; inactive = no such curve, though single readings can be large or run the other way; note: potency is the fitted concentration of half-maximal effect; the source files actives as falling curves though it sought activators and does not explain the sign; nearly all actives have a fitted effect of over 65% in size; many hits overshoot -100%
Target sequence (P80244 whole entry, looked up): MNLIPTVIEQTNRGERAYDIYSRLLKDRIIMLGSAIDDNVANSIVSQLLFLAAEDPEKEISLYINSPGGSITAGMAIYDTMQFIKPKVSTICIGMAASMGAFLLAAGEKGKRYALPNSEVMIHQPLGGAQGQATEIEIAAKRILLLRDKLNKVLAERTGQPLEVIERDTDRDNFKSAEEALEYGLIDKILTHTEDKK
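ClpP 10 microg/mL final, pH 8 Tris/KCl buffer with BSA, glycerol, Tween-20; compound pinned in; FRET-FV substrate; RT 20 min; Ex320/Em430; ΔFRET vs ADEP 5.8 microM, DMSO, no enzyme.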
The depositor's hits bear a star; ? = inconclusive; nt = no result given; & = joins results of further samples; [ ] = dose if it differs, or a comment.

SMILES	gsp antagonist	TRPV1 potentiator	Menin-MLL FL inh	Sfp PPTase inh	TRPML1 blocker	gsp ag	ClpP mod
CC(=O)c1cccc(NC(=O)c2oc(C)nc2C)c1	10.0%	-3.7	-1.7	10.9%	4.4	2.6%	-1.0%
Cc1cc(C)n(CCC(=O)N=Nc2c(O)[nH]c3ccccc23)n1	-10.9%	2.1	-0.8	9.1%	nt	15.8%	3.3%
NC(=O)C1CCN(C(=O)CCNS(=O)(=O)c2cc(Br)cnc2N)CC1	8.4%	-13.8	3.9	11.9%	49.1	-6.2%	-11.0%
Clc1ccc(N2CCN(Cc3ccc(Br)o3)CC2)cc1	7.5%	17.0	27.2	-10.4%	-2.3	-76.5%[inhibitor]	nt
O=C(NNc1ccc(-c2csnn2)cc1)c1cc(Cl)cc(Cl)c1	5.6%	19.5	0.5	-10.6%	32.0	-3.7%[15.4 µM]	-0.6%
CN(C)C1(CNC(=O)C2CCN(S(=O)(=O)c3c(Cl)cccc3Cl)CC2)CCCCC1	8.5%	-15.9	nt	nt	-7.2	26.3%[15.4 µM]	nt
O=C1/C(=C/c2ccncc2)Oc2cc(OS(=O)(=O)c3ccccc3)ccc21	-9.1%	2.5	-1.0	1.6%	10.6	-1.2%	-2.0%
CC(C)C[C@@H](COc1ccccc1)N1CCN(Cc2ccccc2)CCC1=O	-5.6%	-17.7	-1.6	6.7%	17.0	-46.5%[inhibitor]	1.1%&1.2%
O=S(=O)(Nn1cnnc1)c1ccc(F)cc1	9.0%	-6.1	6.7	19.1%	-29.4	-15.8%	nt
O=C(CSc1nnc(CNC(=O)c2ccccc2)o1)Nc1nccs1	-16.6%	5.1	nt	13.3%	-4.7	-12.8%[15.4 µM]	1.4%
Cc1noc(C)c1COc1ccc(C(=O)NCC(c2c(F)cccc2Cl)N(C)C)cc1 (configuration not stated)	-1.3%	11.3	nt	nt	-3.7	?	0.6%
C[C@H]1CN([C@@H](C)CO)C(=O)c2cccc(NC(=O)c3ccc(-c4nccs4)cc3)c2O[C@@H]1CN(C)C(=O)NC1CCCCC1	-10.3%	nt	nt	nt	-0.1	19.0%	-3.1%
CC(=O)NCCC(=O)Nc1nc(-c2ccccc2Cl)cs1	24.9%	10.6	0.0	21.5%	10.9	-0.7%	-0.4%
CCC1CCCCN1CCCNC(=O)CCC(=O)N1CC(C)Oc2ccccc21 (configuration not stated)	11.4%	13.1	-1.2	13.1%	-4.2	9.2%	-0.4%
CCOC(=O)c1ccccc1NC(=O)c1cccc2c1C(=O)N(C1CCN(C(=O)OCC)CC1)C2	-4.9%	11.4	1.4	-9.9%	-7.9	?	-0.1%
NC(=NCCc1ccccc1)NS(=O)(=O)c1ccc(F)cc1	5.5%	-4.1	4.3	5.9%	-29.7	-3.7%	-3.2%
COc1ccc(NC(C)=O)cc1C#N	6.5%	-2.8	3.2	4.5%	15.9	-12.6%[15.4 µM]	1.3%
O=C(Nc1ccccc1Br)C1CCC(=O)N1Cc1ccccc1Cl (configuration not stated)	-4.5%	0.3	0.5	19.3%	-3.7	2.4%	-2.6%
C=CCNC(=O)COC(=O)c1ccccc1C(=O)N(C)C1CCCCC1	-11.5%	11.8	5.4	0.2%	4.0	?	-4.5%
CSc1ncccc1C(=O)NCC(=O)Nc1ccc(F)c(F)c1	6.8%	1.3	4.6	-0.5%	12.8	-32.3%[inhibitor]	-1.3%
CC(C)[C@H](/C=C/C[Si](C)(C)C)[C@H](C)C(O)/C=C/CCCOC(=O)C(C)(C)C (some centres not stated)	nt	nt	-4.3	4.6%	-9.2	nt	nt
COc1ccc(NC2CCCN(C(=O)c3csc(C)n3)C2)cc1 (configuration not stated)	-3.8%	2.8	0.3	-1.2%	-2.4	0.2%	-2.6%
CCC1Oc2ccccc2N(CC(=O)N2CCOCC2)C1=O (configuration not stated)	7.6%	24.6	3.7	4.9%	-9.4	-6.0%[15.4 µM]	nt
Oc1ccccc1N1CCN(CC(O)COCc2ccccc2Cl)CC1 (configuration not stated)	0.5%	7.2	-6.7	-14.7%	-18.1	-40.1%[inhibitor]	-0.5%
Cc1cc(NC(=O)c2cc(-c3cccs3)on2)no1	-2.6%	-21.4	7.5	5.0%	3.7	-24.8%	-9.4%

Brought forward from above: 2 entries, followed by the next part.
SMILES	gsp antagonist	TRPV1 potentiator	Menin-MLL FL inh	Sfp PPTase inh	TRPML1 blocker	gsp ag	ClpP mod
Oc1ccccc1N1CCN(CC(O)COCc2ccccc2Cl)CC1 (configuration not stated)	0.5%	7.2	-6.7	-14.7%	-18.1	-40.1%[inhibitor]	-0.5%
Cc1cc(NC(=O)c2cc(-c3cccs3)on2)no1	-2.6%	-21.4	7.5	5.0%	3.7	-24.8%	-9.4%
COc1ccccc1N(C)S(=O)(=O)c1ccc(C(=O)OCC(N)=O)cc1	4.1%	2.6	-0.4	7.3%	7.2	-15.6%[15.4 µM]	nt
COc1ccc(C(=O)NCC(=O)OCC(=O)Nc2c(C)n(C)n(-c3ccccc3)c2=O)cc1	5.5%	4.3	2.0	17.2%	14.8	-34.3%[inhibitor]	1.9%
O=C(c1cn(-c2ccccc2)nc1-c1ccccc1)n1nnc2ccccc21	13.4%	-2.3	6.2	8.1%	21.0	-43.2%[inhibitor]	-8.4%
CCCC1Cc2c(sc(NC(=S)NC(=O)c3ccccc3)c2C#N)CO1 (configuration not stated)	nt	2.8	0.3	-8.3%	nt	nt	nt
CCOC(=O)C1CCN(C(=O)C(=O)N2CCC(C(=O)OCC)CC2)CC1	4.4%	-9.8	-1.7	0.7%	-3.3	-1.7%	1.3%
COC(=O)c1cc(NC(=O)CSc2nc(C)cc(=O)[nH]2)cc(C(=O)OC)c1	?	7.1	2.0	-18.1%	25.8	-30.8%[inhibitor]	-0.9%
O=C(CSc1nc2ccccc2c(=O)[nH]1)N1CCCCCC1	18.1%	3.9	1.5	5.5%	-17.0	-8.1%	-13.9%
COc1cc(OC)c(OC)cc1CN1CCN(Cc2ccc(SC)cc2)CC1	8.3%	-4.0	-1.8	?	4.4	-27.0%	-0.4%
Cc1ccc(S(=O)(=O)NCCc2nnc3ccc(SCC(=O)Nc4nc5ccccc5s4)nn23)cc1	nt	11.9	11.0	?	nt	nt	nt
Cc1nc(Nc2ccccc2)c2oc3ccc(Cl)cc3c2n1	-1.4%	-29.2	12.8	6.4%	28.0	29.4%	nt
CCNC(=O)NC(=O)COc1ccccc1C#N	2.6%	-3.1	0.1	11.8%	-15.9	2.6%	-7.5%
COc1ccc2c(c1)N(S(=O)(=O)c1ccccc1)CCC2=O	11.3%	4.5	-0.7	18.0%	-5.4	-22.6%	-5.4%
CCc1ccccc1NC(=O)CSc1nnc([C@@H]2CCCN2C(=O)OC(C)(C)C)o1	-8.2%	5.7	-1.5	-1.3%	-11.6	-5.9%	0.8%
CCC(C)n1cnc2c(c1=O)c1nc3ccccc3nc1n2Cc1ccc2c(c1)OCO2 (configuration not stated)	nt	18.5	2.7	-5.5%	nt	nt	nt
COc1ccc2c(c1)[C@H]1[C@H](CO2)[C@H](c2ccccc2)[C@]2(C)C(=O)Nc3ccc(F)cc3C(=O)N12	-11.4%	nt	nt	nt	2.4	nt	-10.0%
Cc1ccc(C)c(S(=O)(=O)N2CCCOC2CNC(=O)C(=O)NC2CC2)c1 (configuration not stated)	-2.4%	7.2	nt	-19.9%	0.9	3.2%	-1.0%
COc1ccc(CNC(=O)COC(=O)Cc2ccc(Cl)cc2Cl)cc1	4.5%	6.1	30.7[activator]	1.2%	16.3	?	-0.9%
CC(C)(C)c1ccc(C(=O)NNc2cc(N3CCOCC3)nc(N3CCOCC3)n2)cc1	nt	2.1	4.0	-29.3%	6.5	24.6%[15.4 µM]	nt
CCCCNC(=S)N1CCN(C(c2ccccc2)c2ccccc2)CC1	nt	7.0	2.6	14.5%	22.1	11.5%[15.4 µM]	nt
NC(=O)C1CCCN(Cc2c(C(=O)N3CCc4ccccc4C3)nc3ccc(Cl)cn23)C1 (configuration not stated)	-0.1%	-18.4	-2.7	9.3%	21.5	?	-7.6%
Cc1csc(=N)n1-c1ccc(Cl)cc1	-2.5%	-0.3	1.2	?	1.8	11.6%	-1.3%
CN(C)CCCNC(=O)c1cc(Br)ccc1Cl	-2.5%	17.7	1.6	0.1%	3.9	-0.8%	-2.0%
CC(=O)N1c2ccccc2NC2=C(C(=O)CC(C)(C)C2)C1c1cccn1C (configuration not stated)	18.8%	2.5	-3.7	12.1%	-2.3	-0.2%[15.4 µM]	-0.3%
Cc1ccc(S(=O)(=O)N2CCOCC2)cc1C(=O)NC1CCCCCC1	4.8%	0.0	2.7	13.4%	18.5	7.6%[15.4 µM]	-2.1%
CN(CC(=O)NCc1ccc(Cl)cc1)S(=O)(=O)c1cccs1	7.4%	-4.4	-2.5	-1.6%	-1.6	16.9%[15.4 µM]	-0.4%
Cc1nn2c(nc1=O)NNC2(C)C(C)(C)C (configuration not stated)	-3.8%	-38.7	-5.7	35.5µM*	nt	15.4%	0.2%
Cc1ccc2c(c1)c1nc3ccccc3nc1n2C	5.4%	-12.0	?	7.8%	nt	1.6%	2.0%

Some of the entries above in another layout.
SMILES: Cc1ccc(S(=O)(=O)N2CCOCC2)cc1C(=O)NC1CCCCCC1
  gsp antagonist: 4.8%
  TRPV1 potentiator: 0.0
  Menin-MLL FL inh: 2.7
  Sfp PPTase inh: 13.4%
  TRPML1 blocker: 18.5
  gsp ag: 7.6%[15.4 µM]
  ClpP mod: -2.1%

SMILES: CN(CC(=O)NCc1ccc(Cl)cc1)S(=O)(=O)c1cccs1
  gsp antagonist: 7.4%
  TRPV1 potentiator: -4.4
  Menin-MLL FL inh: -2.5
  Sfp PPTase inh: -1.6%
  TRPML1 blocker: -1.6
  gsp ag: 16.9%[15.4 µM]
  ClpP mod: -0.4%

Screening data: PubChem BioAssay, National Center for Advancing Translational Sciences (NCATS)
